Screening data as filed in PubChem BioAssay.
BJeLR lethal: MLPCN primary cell-based screen for lethality selective to Ras in HRASV12 cells | AID 1554, 2009 | inhibition, % (concentration not given with the values) | BJeLR (HRASV12) viability, CellTiter-Glo ATP luminescence, 48 h; reference of the scale not given here | 300,000 tested, 0.17% active;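 active means replicate mean above 50%; inconclusive means above 50% but judged a plate artefact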;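 further: 50 nL library stock added to about 25 µL; numbers are from one replicate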
PrP UTR inh: inhibition of PrP 5' UTR reporter expression; cell-based PrP 5' UTR mRNA reporter, plate reader; inhibition, % (no concentration beside the values); 340,000 tested, 0.35% active; AID 488862, 2010;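 active means every replicate at 50% or more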;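 further: 0 = median of the neutral control wells; tested in H4 reporter cells; numbers are from one replicate; inactives centre near -14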
ugtP null kill: growth inhibition of ugtP-null S. aureus, primary screen, RN4220 ugtP deletion, OD600; 16 h; some inactives read as strong as hits; growth inhibition, % (concentration not given with the values); 330,000 tested, 0.54% active; AID 1259309, 2017;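 active means z-score under -3 and OD600 up to 0.15 on both plates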;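 further: plate controls were untreated wells for no effect and antibiotic for full effect; wells of about 80 µL received 100 nL stock; the first replicate is given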
Mtb hypoxia rep: PubChem AID 1159583. M. tuberculosis hypoxia-regulated fluorescent reporter, fluorescence. fluorescence inhibition, % (concentration not given with the values). 300,000 tested, 0.1% active;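 active means 35 to 45% if threefold the growth effect, above 45% if 1.5-fold the growth effect; inactive means the rest, general growth blockers included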;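 further: wells of about 50 µL received 100 nL stock; 0% = vehicle wells and 100% = reference inhibitor wells; whole bacteria with a GFP reporter of the hypoxia response; strong numbers were not always called active; many hits fall short of the cut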
RN4220 kill: growth inhibition of S. aureus RN4220, primary screen, OD600 | 16 h | inhibition, % (no concentration beside the values) | 330,000 tested, 0.33% active;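 active means z-score of -3 or lower and OD600 up to 0.18 on both plates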;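 further: plate controls were untreated cells for no effect and reference antibiotic for full effect; stock transfer was 100 nL into about 80 µL; one replicate is shown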
Bead autofluor: compound fluorescence in toxin protease inhibitor counterscreen. compound autofluorescence counterscreen, microsphere flow cytometry; hits give high values. fluorescence intensity (test concentration not listed). 360,000 tested, 3.1% active. AID 624483;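 active means at least 3 SD above the mean of all compounds, about 16000 in these data; inconclusive means too few beads counted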;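 further: 100 nL of 1 mM stock went into each well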
Mtb hypoxia rep growth: further read-out of Mtb hypoxia rep, marked with its call; growth inhibition, %; measured here: M. tuberculosis growth (absorbance);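 0% = vehicle and 100% = reference antibiotic; read after six days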
* = called active by the depositor; ? = inconclusive; . = not tested or not shown. Rows were taken by chance; overall some 4% were active at least once.

SMILES	BJeLR lethal	PrP UTR inh	ugtP null kill	Mtb hypoxia rep	Mtb hypoxia rep growth	RN4220 kill	Bead autofluor
Cc1ccc(Cn2cccc(-c3nc4ccccc4s3)c2=O)cc1	-2	-48	3	8	2	-1.3	4380
Cc1cc(OCC(=O)N2CCC(C(=O)O)(c3ccccc3)CC2)c2c(C)cc(=O)oc2c1	-5	-6	-5	.	.	2.8	5688
O=C(CSc1ccc2c(c1)OCCO2)Nc1ccc(Br)cn1	12	-11	2	-9	-6	1.5	6035
CCOC(=O)c1cc2occc2n1Cc1c(F)cccc1Cl	-5	1	26	.	.	-7.0	6183
O=C(CSc1oc(-c2ccccc2)nc1S(=O)(=O)c1ccc(F)cc1)NCC1CCCO1 (configuration not stated)	-1	-14	2	-1	-2	1.4	7963
O=C(O)CC(CN1C(=O)c2ccccc2C1=O)c1ccccc1 (configuration not stated)	2	-14	10	14	2	2.9	5592
CC(C)(C)OC(=O)NC(CC(=O)OCc1ccccc1)C(=O)O (configuration not stated)	-5	-8	-6	-10	-16	5.1	4261
Cc1ccc(S(=O)(=O)NNC(=O)c2ccoc2C)cc1	19	-9	6	13	1	1.5	4259
CN(c1ccc(C(=O)NCc2ccc3c(c2)OCO3)cc1)S(C)(=O)=O	7	-23	3	3	9	0.5	22044*
COc1ccc(/C=N/Nc2ccccn2)c(OC)c1OC	16	-58	.	.	.	.	3780
O=C(NC1CC1)c1sc2cc(Cl)ccc2c1Cl	-1	-33	5	6	0	12	5746
Cn1c(CN2CCOCC2)c(C#N)c2ccccc21	-7	-26	8	9	8	4.6	17523*
COc1ccc(C(O)=C(C#N)c2nc3ccccc3n2C)cc1OC	.	.	2	-2	-13	0.2	.
C(=N\n1cnnc1SCc1ccccc1)/c1ccco1	-13	2	.	.	.	.	?
Cc1onc(-c2ccccc2)c1C(=O)N(C)CC(=O)Nc1ccc(F)c(F)c1F	.	-4	-6	1	12	4.8	5688
C[C@H](NC(N)=O)C(=O)Nc1ccc(N2CCOCC2)c(S(=O)(=O)Nc2ccc(Cl)cc2)c1	.	-12	-3	3	4	2.7	3714
O=C(NNC1=NS(=O)(=O)c2ccccc21)c1ccc([N+](=O)[O-])cc1	-6	10	8	-3	6	4.4	5217
CCOC(=O)C1=C(CN2CCN(C(=O)OCC)CC2)NC(=O)NC1c1ccc2c(c1)OCO2 (configuration not stated)	-1	-17	1	-6	5	4.3	4310
O=C(CN1CCOCC1)Nc1ccc(NC(=O)CN2CCOCC2)c(Cl)c1	-8	-8	3	4	-1	3.4	6179
Cc1cc(C)c2nc(-c3cccnc3)cc(C(=O)Nc3ccc(S(=O)(=O)Nc4onc(C)c4C)cc3)c2c1	1	-22	-3	11	16	13	4216
CC(C)c1ccc(NC2CCCN(C(=O)c3cnsn3)C2)cc1 (configuration not stated)	-11	-6	7	6	-5	7.2	5499
CCCN1CCN(C(=O)Cn2nc(CC)n3c(cc4sccc43)c2=O)CC1	-7	-14	0	.	.	0.6	4308
COc1cccc(C2=NOC(C(=O)N3CCN(C(=O)c4ccco4)CC3)C2)c1 (configuration not stated)	5	-11	0	.	.	-5.1	5629
O=C(Nc1ccc(C(=O)O)cc1)/C(=C/c1ccc2c(c1)OCO2)NC(=O)c1cccc(Br)c1	-3	-18	.	.	.	.	2002
O=C(Cc1ccc(Cl)cc1)N1CCc2ccccc2C1	-14	-41	7	.	.	1.8	3863
SMILES	BJeLR lethal	PrP UTR inh	ugtP null kill	Mtb hypoxia rep	Mtb hypoxia rep growth	RN4220 kill	Bead autofluor
Cc1ccc(NC(=O)COC(=O)C2=COCCO2)cc1	4	-21	2	3	-3	3.9	2453
C(=C\CSc1ncn[nH]1)/CSc1ncn[nH]1	3	4	-2	2	9	2.7	20380*
Cc1cc(S(=O)(=O)Nc2nc(CN3CCOCC3)nc3sc4c(c23)CCC4)ccc1F	.	-2	-11	-9	-1	3.1	4076
CC(=O)N1CCc2cc(Br)cc(S(=O)(=O)N3CCc4ccccc43)c21	-2	-59	-8	0	-1	2.0	4508
COc1cc(C(=O)Nc2ccc3c(c2)nc(C)n3C)cc(OC)c1OC	32	-33	3	2	10	1.4	3803
NS(=O)(=O)c1ccc(NC(=O)c2c(F)cccc2Cl)cc1	-12	-10	6	8	12	3.4	5976
CCC1(CC)NC(=O)N(CC(=O)Nc2ccc(S(=O)(=O)N3CCOCC3)cc2)C1=O	0	-39	-5	8	5	4.6	6331
CCC(OC(=O)c1ccco1)C(=O)NC1CCCC1 (configuration not stated)	-17	-20	-3	-2	-3	-0.6	6373
CCN1CCN(c2nc(S(=O)(=O)c3ccc(C)cc3)c(Cl)s2)CC1	3	-26	-2	11	7	10	4519
CCOc1ncccc1C(=O)OCc1ccc(C(=O)OC)o1	0	-1	6	15	7	-5.1	3929
CCCCn1c(-c2cccc3ccccc23)nc2cc3[nH]c(=O)c(C(C)C)nc3cc21	6	-6	-5	4	6	13	3849
CC(C)CN(C(=O)c1ccc(C(F)(F)F)cc1)c1c(N)n(CC(C)C)c(=O)[nH]c1=O	-11	-9	-1	6	1	3.2	3625
CC(C)NC(=O)CC1C(=O)NCCN1CC(c1ccccc1)c1ccccc1 (configuration not stated)	-6	5	1	13	9	6.5	4508
COc1cc(C(C)=NN2CCN(Cc3ccc(C)cc3)CC2)ccc1O	.	.	10	8	-3	3.5	.
CC(C)C(C)NC(=O)CN1C(=O)NC2(CCCc3ccccc32)C1=O (configuration not stated)	4	-20	-14	6	5	-4.1	2287
CC1(C)CC(N2CCCC2)=CC(=[N+]2CCCC2)C1	9	-8	7	3	8	1.8	2086
O=C(CCCN1C(=O)NC2(CCCC2)C1=O)Nc1cccc(S(=O)(=O)N2CCOCC2)c1	.	-14	12	-2	-4	4.9	4067
CC(NCCCOc1cccc2ccccc12)c1ccccc1 (configuration not stated)	0	-17	-23	8	13	-6.7	3658
Cc1ccc(-c2cc(-c3ccccc3)nc(N)c2C#N)o1	-5	-21	3	11	6	4.0	3595
CC(C)(C)C1CCc2c(sc(NC(=O)C3CC=CCC3C(=O)O)c2C#N)C1 (configuration not stated)	-7	-41	23	6	7	-4.6	2164
CCOC(=O)c1ccc(N/N=C/c2cc(Br)cc([N+](=O)[O-])c2O)cc1	8	-18	.	.	.	.	4384
Cc1cc2oc(=O)cc(CN(C)Cc3cccc(F)c3)c2cc1Cl	0	-56	-11	1	1	3.5	4209
CCC(C)N(C(=O)Cn1c(=O)cnc2ccccc21)C1CCS(=O)(=O)C1 (configuration not stated)	3	-30	-2	-1	-1	3.6	?
O=C(OCc1ccccc1)/C(=C/c1cccc([N+](=O)[O-])c1)NC(=O)c1ccco1	-15	-8	17	-4	-7	1.2	4165
COc1cccc(C(C)=NNC(=O)c2cc(-c3cccnc3)nc3ccccc23)c1	.	.	-5	-7	-9	-2.9	.
SMILES	BJeLR lethal	PrP UTR inh	ugtP null kill	Mtb hypoxia rep	Mtb hypoxia rep growth	RN4220 kill	Bead autofluor
Cc1ccc(-c2nnn(CCC(=O)NC(C)(C)C)n2)cc1	0	-20	7	4	9	5.1	3258
Nn1c(SCC(=O)Nc2ccc(Oc3ccccc3)cc2)nnc1C1CC1	-2	-5	-9	-5	-6	-6.2	10756
N#CCn1c2ccccc2c2nc3ccccc3nc21	-10	-33	24	-3	3	2.0	4048
NC(=O)c1cccc2c(=O)oc3ccccc3c12	-2	4	0	.	.	1.3	4723
Cc1ccc(Cn2c(C(C)Nc3nc(-c4ccc(F)cc4)cs3)nc3cc(C(=O)NCCCO)ccc32)cc1 (configuration not stated)	-10	-30	.	.	.	.	3625
Cc1ccc(CNC(=O)Cn2ccc3ccccc3c2=O)o1	-1	-5	-5	.	.	-3.2	2342
Cc1ccc(N=Cc2c(O)n(-c3ccc(C)cc3)c(=O)[nH]c2=O)cc1	11	-7	7	15	9	6.0	3746
CC(CCn1cccn1)NC(=O)c1cc(COc2ccc(F)cc2F)on1 (configuration not stated)	9	-15	6	2	3	3.1	3291
O=S(=O)(CCSc1ccc(C(F)(F)F)cn1)c1ccc(Cl)cc1	0	-24	2	2	-2	-1.5	5455
O=C(NC1CCCC1)C1CCCN(S(=O)(=O)c2ccc(-n3cnnn3)cc2)C1 (configuration not stated)	1	-22	-4	.	.	-0.9	4357
COc1cc(CNCCSc2nnnn2C)cc(Br)c1OCc1ccccc1	-4	7	-5	-9	5	-0.1	?
O=C(O)c1ccc(/C=C2\SC(=S)N(NC(=O)c3ccc(Br)cc3)C2=O)cc1	-8	1	-8	-8	-16	3.4	4955
O=S(=O)(Nc1ccc(Br)cn1)c1ccc(Cl)s1	-4	-5	-8	-4	1	5.7	6291
O=C(O)c1ccc(C=NNC(=O)c2ccc(NS(=O)(=O)c3cccs3)cc2)cc1	.	.	5	2	-2	3.9	.
CCOC(=O)C(C(C)=O)c1c(Br)c(O)c(O)c2c(C(=O)c3ccc(C)cc3)coc12 (configuration not stated)	0	-16	7	-2	-4	4.5	7803
CCCc1cc(=O)[nH]c(Nc2ccc(O)cc2)n1	-11	-5	5	2	2	0.2	9908
O=C(O)CSc1nnc(COc2cccc3cccnc23)n1-c1ccc(Cl)cc1	1	-19	1	10	-5	-0.7	4700
CN(C)C(=O)c1c2c(nc3ccccc13)CCCC2	-21	-16	.	.	.	.	4160
COc1ccccc1-n1c(SCC(=O)N2CCOCC2)nc(O)c(Cc2ccccc2)c1=O	3	7	-3	9	3	-2.3	3088
CCN1C(=O)N(c2cccc3ccccc23)C(C)=CC1(C)C	0	-4	-6	.	.	8.8	2792
COc1ccc(-c2[nH]ncc2CN(Cc2nccn2C)C(C)C)c(F)c1	-11	-9	2	-2	4	3.9	2138
CC1(C)C(=O)Nc2ccccc2N1C(=O)COC(=O)c1cccs1	.	-30	-2	7	9	2.1	2951
Nc1c([N+](=O)[O-])cc(-c2cnc[nH]2)cc1[N+](=O)[O-]	5	3	.	.	.	.	3169
O=C(NCCCN1CCN(c2cccc(Cl)c2)CC1)C1CCC(=O)N1Cc1ccccc1Cl (configuration not stated)	-9	-23	9	0	3	7.7	3025
COc1ccc(C(=O)NCc2nnc(SC)n2Cc2ccccc2)cc1	-3	54*	0	12	4	4.9	3318
SMILES	BJeLR lethal	PrP UTR inh	ugtP null kill	Mtb hypoxia rep	Mtb hypoxia rep growth	RN4220 kill	Bead autofluor
COc1ccc(/C=C/C(=O)Nc2ccccc2)cc1S(=O)(=O)N1CCOCC1	3	-23	6	13	10	3.4	3890
N#CCSc1nnc(-c2ccc3c(c2)OCO3)o1	-4	-18	12	15	-4	4.1	3925
O=C(CN1CCN(S(=O)(=O)c2ccccc2)CC1)NCc1ccccc1	-2	-20	1	2	6	0.6	6644
Nc1nonc1-n1nnc(C(=O)NN=Cc2ccc(Cl)cc2Cl)c1CN1CCOCC1	.	.	6	-4	-3	2.1	.
COc1ccc(/C=N/NC(=O)c2ccn[nH]2)cc1COc1ccc(Cl)cc1	9	-12	.	.	.	.	4561
CCOc1ccc(Nc2nc(N)nc(CN(C)C3CCCCC3)n2)cc1	-27	-13	1	4	4	4.8	10763
Cc1ccccc1-c1n[nH]c(=S)n1N=C/C=C/c1ccco1	.	.	-2	-3	7	7.7	.
Cc1onc(-c2ccccc2)c1C(=O)Nc1nc(-c2ccc(F)c(F)c2)cs1	8	-24	-11	.	.	2.2	4772
CNC(=O)NC(=O)C(C)OC(=O)CCCSc1nc2ccccc2s1 (configuration not stated)	-5	-5	0	18	10	5.6	2119
Cc1ccc(NC(=S)N(Cc2ccc(Cl)cc2)Cc2ccc(C(=O)O)cc2)cc1Cl	-1	-24	3	1	15	13	3211
CCOC(=O)/C(C#N)=C/c1cn(CCC(=O)O)nc1-c1ccc(F)cc1	-2	-13	4	4	2	-0.1	4413
CCOC(=O)C1CCN(C(=O)CCc2nnc3ccc(NCCCN4CCCC4=O)nn23)CC1	-1	-11	5	2	14	1.0	5552

Some of the entries so far, with values under each structure.
Each structure is followed by: BJeLR lethal	PrP UTR inh	ugtP null kill	Mtb hypoxia rep	Mtb hypoxia rep growth	RN4220 kill	Bead autofluor
- CCOc1ccc(Nc2nc(N)nc(CN(C)C3CCCCC3)n2)cc1
    -27	-13	1	4	4	4.8	10763
- Cc1ccccc1-c1n[nH]c(=S)n1N=C/C=C/c1ccco1
    .	.	-2	-3	7	7.7	.
- Cc1onc(-c2ccccc2)c1C(=O)Nc1nc(-c2ccc(F)c(F)c2)cs1
    8	-24	-11	.	.	2.2	4772
- CNC(=O)NC(=O)C(C)OC(=O)CCCSc1nc2ccccc2s1 (configuration not stated)
    -5	-5	0	18	10	5.6	2119
- Cc1ccc(NC(=S)N(Cc2ccc(Cl)cc2)Cc2ccc(C(=O)O)cc2)cc1Cl
    -1	-24	3	1	15	13	3211
